GCN5L2 inh = qHTS Assay for Inhibitors of GCN5L2. GCN5L2 HAT assay, ThioGlo1 CoA-SH fluorescence. Potency, µM (series often up to 58.9 µM), for the others: top-dose activity change, negative = inhibition, most hits filed as inhibitors. 390,000 compounds, 0.21% hits. AID 504327, 2011
Target sequence (Q92830 whole entry, looked up): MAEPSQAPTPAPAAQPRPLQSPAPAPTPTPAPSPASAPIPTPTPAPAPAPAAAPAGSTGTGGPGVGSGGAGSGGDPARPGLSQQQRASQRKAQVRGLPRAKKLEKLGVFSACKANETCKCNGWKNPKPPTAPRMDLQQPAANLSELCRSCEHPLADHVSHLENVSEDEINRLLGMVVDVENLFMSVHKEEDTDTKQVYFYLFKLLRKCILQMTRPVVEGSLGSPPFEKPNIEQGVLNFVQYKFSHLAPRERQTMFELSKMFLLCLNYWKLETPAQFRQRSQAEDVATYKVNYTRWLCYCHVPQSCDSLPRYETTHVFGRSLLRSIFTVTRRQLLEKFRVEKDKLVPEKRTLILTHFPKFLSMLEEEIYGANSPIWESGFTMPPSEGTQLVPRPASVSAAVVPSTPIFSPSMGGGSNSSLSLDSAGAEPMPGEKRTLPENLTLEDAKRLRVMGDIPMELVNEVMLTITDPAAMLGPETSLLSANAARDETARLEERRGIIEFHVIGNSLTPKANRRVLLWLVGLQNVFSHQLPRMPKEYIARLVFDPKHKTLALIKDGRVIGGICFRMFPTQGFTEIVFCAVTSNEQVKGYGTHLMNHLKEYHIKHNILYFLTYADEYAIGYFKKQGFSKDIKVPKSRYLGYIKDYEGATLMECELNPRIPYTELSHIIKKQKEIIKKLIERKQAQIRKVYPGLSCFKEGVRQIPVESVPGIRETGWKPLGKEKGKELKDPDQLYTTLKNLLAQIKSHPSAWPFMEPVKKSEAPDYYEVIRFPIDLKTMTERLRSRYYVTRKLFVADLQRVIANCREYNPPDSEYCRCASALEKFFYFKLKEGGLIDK
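Fluorescence readout, Ex340nm/Em540nm: ThioGlo1 (50uM final) reacts with free CoA thiol released as 20nM GCN5L2 acetylates H3(1-25) peptide (75uM) using acetyl-CoA (70uM). Compound and enzyme sat 15 min beforehand; 20 min room-temperature reaction.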
TDP1 cell CPT = qHTS for Inhibitors of human tyrosyl-DNA phosphodiesterase 1 (TDP1): qHTS in cells in presence of CPT. chicken DT40 Tdp1-/-;hTDP1 cells + 20 nM CPT, ATP luminescence, 48 h. Potency, µM (titrated, usually from 46.2 µM), for inactives: at the top dose activity change, negative = growth inhibition, hits mostly inhibitors. 420,000 compounds, 12% hits. AID 686979, 2013; further: nearly all actives have a fitted effect of over 55% in size
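Cell growth measured by CellTiter-Glo luminescence after a minimum 48 h, 37 C compound exposure with 20 nM CPT in Tdp1-knockout DT40 cells stably expressing hTDP1, seeded 400/well; qHTS titration format.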
* hit, by the source's call; ? = inconclusive; / = not tested or not shown; [ ] = another dose, or the depositor's remark. The call rests on the fitted dose curve; in most records, active means well fitted curve in the direction sought with a large enough effect; inconclusive means small, poorly fitted or top-dose-only effect, or another doubt; inactive means no such curve, though single readings can be large; an effect the other way counts as inactive or inconclusive. On the % scale 0 is the no-effect control and ±100 the full control effect; potency means the concentration at half of the fitted maximal effect. A portion of the library, and most or all hits are left out here.

SMILES	TDP1 cell CPT	GCN5L2 inh
N#C/C(=C\c1ccc[nH]1)C(=O)NCC1CCCO1 (stereo unspecified)	2%	-1%
O=C(NC(=S)NC(CO)c1ccccc1)c1ccc(F)cc1 (stereo unspecified)	-27%	-3%
CCOc1ccc(C2c3[nH]c4ccccc4c3CCN2CCCn2cccn2)cc1 (stereo unspecified)	?	-10%
CCOC(=O)Cn1c(C)nc2ccccc21	-1%	0%
O=C1c2ccccc2NC(c2cn[nH]c2-c2ccccc2)N1O (stereo unspecified)	-5%	0%
c1ccc(N2CCCCC2)c(NC2=NCCC2)c1	-22%	-12%
CCOCCCNC(=O)c1cccs1	-10%	-12%
Cc1ccc(OCCOCCNC(C)(C)C)c([N+](=O)[O-])c1	-26%	-2%
Cc1ccccc1CN1CCNC(=O)C1CC(=O)O (stereo unspecified)	-45%	-10%
COc1ccc(S(=O)(=O)N2CCN(C)CC2c2ccccc2)cc1OC (stereo unspecified)	-18%	-5%
CCc1ccccc1N(CC)C(=O)c1cn(C)c(=O)c2cc(OC)c(OC)cc12	-12%	0%
CCOc1ccccc1/C=C/C(=O)NCC(=O)N1CCC(N(C)C2CCCCC2C)CC1 (stereo unspecified)	?	-7%
COc1ccc(C)cc1NC(=O)CN1CCN(S(=O)(=O)c2ccc(C(C)C)cc2)CC1	?	-8%
CCOc1ccc(CCNC(=O)c2sc3nc4n(c(=O)c3c2C)CCCC4)cc1	?	-3%
O=C1CCCN1CC(O)CS(=O)(=O)Cc1ccc(Cl)cc1 (stereo unspecified)	-1%	/

Quoted at random: 5 compounds from above
SMILES	TDP1 cell CPT	GCN5L2 inh
Cc1ccc(OCCOCCNC(C)(C)C)c([N+](=O)[O-])c1	-26%	-2%
Cc1ccccc1CN1CCNC(=O)C1CC(=O)O (stereo unspecified)	-45%	-10%
CCOc1ccc(C2c3[nH]c4ccccc4c3CCN2CCCn2cccn2)cc1 (stereo unspecified)	?	-10%
O=C1c2ccccc2NC(c2cn[nH]c2-c2ccccc2)N1O (stereo unspecified)	-5%	0%
CCOCCCNC(=O)c1cccs1	-10%	-12%

The listing continues.
SMILES	TDP1 cell CPT	GCN5L2 inh
O=c1c2ccccc2ncn1-c1cccc([N+](=O)[O-])c1	-12%	/
COc1ccc(Nc2nc(C)nc3c2oc2ccccc23)c(OC)c1	-15%	-1%
COc1ccc(CN2C(=O)N(c3ccccc3)C(=O)C2CC(=O)Nc2ccccc2)cc1OC (stereo unspecified)	0%	-15%
O=[N+]([O-])/C(N=Nc1ccccc1)=N\Nc1ccccc1	6%	-3%
NNC(=O)CSc1nc(-c2ccccc2)nc2c1CCCC2	-5%	-13%
C(=N\N1CCOCC1)/c1ccsc1	10%	3%
Cn1cc(/C=N/NC(=O)c2ccc(C#N)cc2F)c2ccccc21	15%	-4%
COc1cc2cc(CCOC(=O)c3ccc(C#N)cc3)oc(=O)c2cc1OC	?	-9%
CC(=O)c1cccc(NC(=O)N2C3CCC2CC(O)(c2cccnc2)C3)c1 (stereo unspecified)	-25%	-7%
CC(C)c1nc(SCc2c(F)cccc2Cl)c2c(=O)n(C)c(=O)n(C)c2n1	?	-6%
Cc1ccccc1CC1(CO)CCCN(C(=O)c2ccccc2N(C)C)C1 (stereo unspecified)	?	10%
CC1(C)Cc2nc3nc(SCC(=O)Nc4ccccc4)nc(N)c3cc2CO1	5%	-12%
COCCNC(=S)Nc1ccccn1	6%	0%
CC(C)[C@@H](C(=O)N[C@@H](C(=O)O)c1ccccc1)N1C(=O)N2CCc3c([nH]c4ccccc34)[C@@]2(C)C1=O	-6%	?
Cn1nnnc1SCCNCc1ccccc1OCc1ccc(Cl)cc1	?	-6%
CCC(=O)N1CCN(c2nc3ccccc3s2)CC1	-20%	-4%
CC(=O)c1cccc(NC(=O)c2noc3c2CC(C)CC3)c1 (stereo unspecified)	2%	2%
CCCN1CCC(NC(=O)Cc2ccccc2C)CC1	-3%	0%
COc1ccc(CCNS(=O)(=O)c2cc3c4c(c2)CCN4C(=O)CC3)cc1OC	-10%	-1%
CCOc1ccc(/C=N/NC(=O)CC(=O)NCc2ccccc2)cc1	7%	5%
COc1ccc(NC(=O)CN2C(=O)NC3(CCCC3)C2=O)cc1	-1%	-19%
Cc1nn(C(=O)CNC(=O)c2ccccc2)c(C)c1C	-1%	-5%
Cc1ccc(N2CC(C(=O)Nc3cccnc3)CC2=O)cc1C (stereo unspecified)	13%	-7%
CC(=O)NCCC(=O)N1CCc2c([nH]c3ccccc23)C1c1cccc(C)c1 (stereo unspecified)	-30%	-2%
Cc1ccc(C2=NS(=O)(=O)N(C)C(C(=O)NC3CCCC3)=C2)cc1	?	-14%
Cn1c(=O)c(=O)n(C)c2cc(S(=O)(=O)NCCc3ccccc3)ccc21	-20%	-5%
Cc1ccc(-n2c3c(cc(C(=O)O)c2=O)C(=O)CC(C)(C)C3)cc1	-19%	2%
COc1ccc(F)cc1C(=O)C1CCCN(Cc2cccn2-c2cccnc2)C1 (stereo unspecified)	?	12%
C=CCN(C(=O)C1=NN(C2CCS(=O)(=O)C2)C(=O)CC1)c1nc(-c2ccc([N+](=O)[O-])cc2)cs1 (stereo unspecified)	-2%	-10%
COc1ccccc1NC(=O)COC(=O)c1[nH]c(=O)[nH]c(=O)c1N	-4%	-8%
CN1CCN(c2ccccc2/C=C2/C(=O)Nc3ccccc32)CC1	?	-1%
COc1ccc(-c2cc(C(=O)Nc3ccc(S(N)(=O)=O)cc3)c3ccccc3n2)cc1OC	-10%	-14%
CN(Cc1ccccc1)Cc1ccccc1F	-27%	-7%
CCn1c(SC/C=C/c2ccccc2)nnc1-c1cccs1	?	0%
CCC1CCCCN1C(=O)c1c[nH]c2ccc(S(=O)(=O)Nc3cccc(OC)c3)cc2c1=O (stereo unspecified)	-3%	-2%
Cc1cc(C)cc(NC(=O)C2CCN(S(=O)(=O)c3ccc4[nH]c(=O)ccc4c3)CC2)c1	-5%	-21%
COc1cc2c(C(=O)N(C)c3cc(Cl)ccc3OC)cn(C)c(=O)c2cc1OC	?	23%
O=[N+]([O-])c1cccc(/C=N/Nc2cc(N3CCOCC3)ncn2)c1	?	-4%
CCOC(=O)c1sc(=S)n(-c2ccccc2)c1SC	-18%	-5%
O=C(Nc1cccc(Cl)c1)OCc1ccccn1	-1%	2%
O=C(O)Cn1cnc2ccccc2c1=O	2%	0%
CC(C)(C)C(=O)CC(=O)Nc1ccc(Cl)c(N)c1	-5%	-2%
O=C(NC1CCCCC1)C(c1ccc(O)cc1)N(CC1CCCO1)C(=O)C1COc2ccccc2O1 (stereo unspecified)	?	0%
COc1ccc(NC(=S)Nc2ccc(N(C)C(C)=O)cc2)cc1	5%	0%
Cc1cc(N2CCN(C)CC2)n2nc(-c3ccc(Cl)cc3)nc2n1	-27%	-6%
COc1ccc(-c2noc(C3CCCN(C(=O)Nc4ccccc4)C3)n2)cc1 (stereo unspecified)	26µM*	-4%
O=C(O)c1ccccc1C(=O)Nc1c(-c2ccccc2)nc2ccccn12	8%	-4%
CC(C)C(C(=O)OCC(=O)c1cccc([N+](=O)[O-])c1)N1C(=O)[C@@H]2[C@H]3CC[C@H](C3)[C@@H]2C1=O (stereo partly specified)	-12%	8%
O=C(Nc1ccc([N+](=O)[O-])cn1)C1CC1	23%	0%
O=C(Nc1ccc(S(=O)(=O)N2CCCC2)cc1)c1ccc([N+](=O)[O-])cc1	1%	-4%
CCOC(=O)C1=C(C)NC(SC)=NC1c1ccccc1 (stereo unspecified)	-14%	2%
COc1cc(C(=O)NNC(=O)Nc2ccc([N+](=O)[O-])cc2)cc(OC)c1OC	6%	-2%
CCCc1[nH]nc2c1C(c1ccc(OC(=O)N3CCOCC3)cc1)C(C#N)=C(N)O2 (stereo unspecified)	-6%	-9%
O=C1NC2(CCCCCC2)C(=O)N1Cc1ccc([N+](=O)[O-])cc1	-9%	2%
CN(Cc1ccccc1)C(=O)COC(=O)c1ccc(-n2cnnn2)cc1	1%	0%
CCOC(=O)CSc1nc2ccccc2c(=O)n1CC(C)C	18%	-24%
CCOC(=O)c1cccc(NC(=O)CN2C(=O)C3CC=CCC3C2=O)c1 (stereo unspecified)	-2%	-3%
Cn1c(N)c(C(=O)COC(=O)c2ccc(Cl)c(S(=O)(=O)N3CCCCC3)c2)c(=O)n(C)c1=O	-21%	-13%
CCCn1c(=O)c2sccc2n2c(CCCC(=O)NCc3ccco3)nnc12	-28%	?
CCOC(=O)C1=CN2CCC[C@H]2CC1=O	-10%	-1%

(listing goes on)
SMILES	TDP1 cell CPT	GCN5L2 inh
O=C(CCc1ccccc1)NNC(=O)Nc1cccc(Cl)c1	-20%	-27%
NC(=O)c1ccccc1N/C=C/C(=O)c1cccs1	-15%	-8%
CCOC(=O)C1=C(Nc2ccccc2)CC(C)(O)C(C(=O)OCC)C1c1ccccc1 (stereo unspecified)	0%	-4%
Cc1cccc(C(=O)NCc2nnc3c4ccccc4c(-c4ccccc4)nn23)c1	?	28%
CCCCNC(=O)c1ccc2c(c1)N(CC)C(=O)c1ccccc1S2(=O)=O	?	0%
CC(C)CC(NC(N)=O)C(=O)NCc1ccccc1Cl (stereo unspecified)	15%	-7%
CCOc1ccc(S(=O)(=O)NCCC(=O)OCC(=O)NC(=O)c2cccn2C)cc1	0%	2%
O=C(NCc1cccs1)c1cccc(S(=O)(=O)N2CCCCC2)c1	-30%	-23%
Cc1[nH]c(=O)nc(SCc2ccc(Cl)c(Cl)c2)c1C#N	1%	-9%
C/C(=C\c1ccccc1)C(=O)NCCN1CCOCC1	-4%	0%
CCOC(=O)Nc1ccc2c(CN3CCN(S(=O)(=O)c4ccc(C(C)C)cc4)CC3)cc(=O)oc2c1	-28%	-5%
CCC1Oc2ccc(C)cc2N(CC(=O)NCCCN2CCCCC2C)C1=O (stereo unspecified)	-9%	-2%
CCN(CC(=O)Nc1c(F)cccc1F)C(=O)c1ccc(C(F)(F)F)cc1	10%	-1%
Cc1nn(Cc2ccc(C(=O)Nc3ccc(C(=O)OC(C)C)cc3)o2)c(C)c1Cl	?	-22%
CC(C)NC(NC(=O)/C=C/c1ccccc1)C(Cl)(Cl)Cl (stereo unspecified)	-3%	-6%

In a second layout: results already given.
The line under a structure holds: TDP1 cell CPT	GCN5L2 inh
> CCCc1[nH]nc2c1C(c1ccc(OC(=O)N3CCOCC3)cc1)C(C#N)=C(N)O2 (stereo unspecified)
→ -6%	-9%
> O=C1NC2(CCCCCC2)C(=O)N1Cc1ccc([N+](=O)[O-])cc1
→ -9%	2%

(next part)
SMILES	TDP1 cell CPT	GCN5L2 inh
CCOC(=O)c1cc(-c2ccc(C)cc2)n(CCC(=O)N2CCN(c3ccccn3)CC2)c1C	23µM*	-5%
CSc1cccc(NC(=S)N(CCC(C)C)C2CCN(C(C)=O)CC2)c1	-8%	1%
Cc1cc(C)cc(N(CC(=O)NC2CCCCC2)C(=O)CNC(=O)c2ccco2)c1	-2%	-5%
CCOc1ccc(NC(=S)N(CCc2ccncc2)C(C)C)cc1	-17%	-2%
O=C(Cn1ccc2cc(S(=O)(=O)N3CCCCC3)ccc21)NCc1ccccc1F	?	-7%
O=C(CN1CCN(c2ccc(F)cc2)CC1)c1ccc(O)cc1O	-11%	-7%
CC(=O)N(CN1C(=O)CCC1=O)c1ccc(Cl)c(Cl)c1	-13%	-2%
COc1ccc(CNC(=O)CCS(=O)(=O)c2ccc3c(c2)NC(=O)CS3)cc1	-9%	-3%
CC1(C)CC(=O)C=C(N2CCCC2)C1	5%	-10%
Cc1cccn2c(CNCC3OCCc4ccccc43)c(C(=O)N3CCCCC3)nc12 (stereo unspecified)	?	-6%
CSC(C(=O)c1cc2ccccc2o1)c1ccccc1 (stereo unspecified)	-12%	1%
CC1CN(C(=O)c2c([N+](=O)[O-])cnn2C)CC(C)O1 (stereo unspecified)	9%	-3%
CCOC(=O)C(C)n1cnc2c(oc3ccccc32)c1=O (stereo unspecified)	-11%	77%[activator]
CCC(=O)Nc1cccc(NC(=O)c2cccc([N+](=O)[O-])c2C)c1	?	3%
CC(C)CCNc1nc(N)c([N+](=O)[O-])c(NCC2CCCO2)n1 (stereo unspecified)	15µM*	-4%

Single values from the results shown:
In TDP1 cell CPT, COc1ccc(CNC(=O)CCS(=O)(=O)c2ccc3c(c2)NC(=O)CS3)cc1 shows -9%
In TDP1 cell CPT, CC1CN(C(=O)c2c([N+](=O)[O-])cnn2C)CC(C)O1 (stereo unspecified) shows 9%
In GCN5L2 inh, O=C(Cn1ccc2cc(S(=O)(=O)N3CCCCC3)ccc21)NCc1ccccc1F shows -7%
In GCN5L2 inh, Cc1cccn2c(CNCC3OCCc4ccccc43)c(C(=O)N3CCCCC3)nc12 (stereo unspecified) shows -6%
